Compound activity: PubChem, Broad Institute
UUG fidelity: modulators of yeast start codon fidelity, primary screen, whole organism, S. cerevisiae, single point, plate reader. S. cerevisiae UUG-firefly luciferase reporter, luminescence/redox ratio. activity score, % at 18.7 µM. 350,000 tested, 0.13% active. AID 602363, 2012;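 active means replicate mean at a twofold rise or more, about +100% in these data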;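 further: firefly luciferase made from a UUG start codon reports start codon fidelity; reporter light over untreated wells divided by growth signal over untreated wells; some hits fall short of that in this replicate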
HIV Env fusion: inhibitors of HIV-1 Env-driven cell-cell fusion, primary screen, HeLa-JRFL effector, CEM21 target cells, luciferase. inhibition, % at 12.3 µM. AID 651610, 2012. 360,000 tested, 1.1% active;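 active means mean replicate inhibition score of at least 50 and every replicate individually at or above 50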;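 further: 0% = plate neutral controls and 100% = maraviroc near 300 nM; one replicate is shown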
* hit, by the source's call; & = joins results of further samples; [ ] = dose if it differs, or a comment. This is a subset, so the mix of outcomes need not match the whole.

| UUG fidelity | HIV Env fusion | Structure |
| --- | --- | --- |
| -1.0 | 1.8[16.7 µM] | C[C@H]1CCCCO[C@@H](CN(C)Cc2ccccc2)[C@@H](C)CN([C@@H](C)CO)C(=O)c2cc(NC(=O)CCC(F)(F)F)ccc2O1 |
| -11.3 | 11.1[16.7 µM] | C[C@@H]1CN([C@@H](C)CO)C(=O)c2cc(C#Cc3cccnc3)cnc2O[C@@H]1CN(C)Cc1ccc(F)cc1 |
| 6.9 | 12.3[16.7 µM] | C[C@@H]1CCCCO[C@@H](CN(C)C(=O)Nc2ccccc2)[C@@H](C)CN([C@H](C)CO)C(=O)c2cc(NC(=O)c3ccccc3)ccc2O1 |
| 13.5 | -19.9[16.7 µM] | COc1ccc(CN(C)C[C@H]2OCCCC[C@H](C)Oc3ccc(NC(=O)Cc4ccccc4)cc3C(=O)N([C@@H](C)CO)C[C@H]2C)cc1 |
| -3.6 | 2.5[16.7 µM] | C/C=C/c1cnc2c(c1)C(=O)N([C@H](C)CO)C[C@H](C)[C@@H](CN(C)S(=O)(=O)c1cccs1)O2 |
| -7.3 | -11.9[16.7 µM] | C[C@H](CO)N1C[C@H](C)[C@H](CN(C)CC2CC2)Oc2ccc(NC(=O)Cn3cnnn3)cc2CC1=O |
| 9.3 | 16.2[16.7 µM] | CCCNC(=O)C[C@@H]1CC[C@@H]2[C@@H](COc3ccc(NC(=O)Nc4ccccc4F)cc3C(=O)N2C)O1 |
| 0.2 | 19.7[16.7 µM] | C[C@@H]1CN([C@@H](C)CO)C(=O)c2cc(/C=C/c3ccccc3)cnc2O[C@H]1CN(C)Cc1ccccc1 |
| 34.5 | 3.0[16.7 µM] | O=S(=O)(Cc1ccccc1)NCC[C@H]1CC[C@H](NS(=O)(=O)c2ccccc2)[C@H](CO)O1 |
| 12.0 | -12.4[16.7 µM] | C[C@@H]1CCCCO[C@@H](CN(C)Cc2ccccc2)[C@@H](C)CN([C@@H](C)CO)C(=O)c2cc(NC(=O)NC3CCCCC3)ccc2O1 |
| 6.5 | 0.5[16.7 µM] | Cc1ccc(S(=O)(=O)N(C)C[C@@H]2OCCCC[C@@H](C)Oc3ccc(NC(=O)C4CCCCC4)cc3C(=O)N([C@@H](C)CO)C[C@@H]2C)cc1 |
| 15.3 | -0.4[16.7 µM] | Cc1ccc(S(=O)(=O)Nc2cccc3c2O[C@@H](CN(C)C(=O)Nc2ccccc2)[C@@H](C)CN([C@@H](C)CO)C3=O)cc1 |
| -3.7 | -6.1[16.7 µM] | C[C@@H]1CN([C@@H](C)CO)C(=O)c2cc(-c3cccc(C#N)c3)cnc2O[C@@H]1CN(C)C |
| -1.0 | 13.8[16.7 µM] | C[C@@H]1CN([C@H](C)CO)C(=O)c2cccc(NC(=O)Nc3ccc4c(c3)OCO4)c2O[C@H]1CN(C)Cc1ccccc1 |
| 5.4 | 0.1[16.7 µM] | Cc1ccc(S(=O)(=O)N(C)C[C@@H]2Oc3ccc(NC(=O)CCC(F)(F)F)cc3C(=O)N([C@@H](C)CO)C[C@H]2C)cc1 |
| -3.2 | 2.0[16.7 µM] | C[C@H](CO)N1C[C@H](C)[C@H](CN(C)S(C)(=O)=O)Oc2ncc(-c3cc4ccccc4o3)cc2C1=O |
| -11.2 | -23.2 | COc1cc(OC)c(C(=O)C=Cc2ccc(OC)c(OC)c2)c(OC)c1 |
| 8.6 | 1.1[16.7 µM] | C[C@H]1CCCCO[C@@H](CN(C)Cc2ccccc2)[C@@H](C)CN([C@@H](C)CO)C(=O)c2cc(NC(=O)Cc3ccccc3)ccc2O1 |
| 15.1 | 21.0[16.7 µM] | C[C@H](CO)N1C[C@H](C)[C@@H](CN(C)Cc2ccccc2F)Oc2cc(C#CC3CC3)ccc2S1(=O)=O |
| -6.7 | -6.0[16.7 µM] | Cc1noc(C)c1NC(=O)N(C)C[C@@H]1Oc2ccc(N(C)C)cc2CC(=O)N([C@H](C)CO)C[C@H]1C |
| -14.5 | 28.1[16.7 µM] | Cc1noc(C)c1S(=O)(=O)Nc1ccc2c(c1)C(=O)N([C@@H](C)CO)C[C@H](C)[C@@H](CN(C)S(=O)(=O)c1ccc(Cl)cc1)O2 |
| -4.4 | -5.8[16.7 µM] | C[C@@H]1CN([C@@H](C)CO)C(=O)c2cc(NS(=O)(=O)c3cn(C)cn3)ccc2O[C@H]1CN(C)S(=O)(=O)c1ccc(Cl)cc1 |
| 6.7&-0.1 | -20.7&-33.7[16.7 µM] | C[C@H](CO)N1C[C@H](C)[C@H](CN(C)C)Oc2ncc(-c3cccc(F)c3)cc2C1=O |
| -14.5 | -0.6[16.7 µM] | O=C(Cc1ccccn1)N[C@H]1CC[C@H](CCNS(=O)(=O)c2cccc(F)c2)O[C@@H]1CO |
| 5.3 | -21.8[16.7 µM] | C[C@@H]1CN([C@@H](C)CO)S(=O)(=O)c2ccc(C3=CCCCC3)cc2O[C@@H]1CN(C)C(=O)Cc1cccnc1 |
| -23.3 | 0.3[16.7 µM] | CCNC(=O)C[C@H]1CC[C@H]2[C@H](COc3ccc(NC(=O)Nc4c(C)noc4C)cc3C(=O)N2C)O1 |
| -1.9 | 0.9[16.7 µM] | CN(C)CC(=O)N1[C@H](C#N)[C@@H](c2ccc(-c3ccccc3F)cc2)[C@H]1CO |
| -3.7 | 0.7[16.7 µM] | O=C(CCN1CCCCC1)N[C@@H]1CC[C@@H](CCn2cc(-c3cccc(F)c3)nn2)O[C@H]1CO |
| -2.3 | -15.9[16.7 µM] | C[C@@H]1CN([C@H](C)CO)C(=O)c2cc(NS(=O)(=O)c3ccc(Cl)cc3)ccc2O[C@@H]1CN(C)S(=O)(=O)c1cccs1 |
| -23.7 | -11.1[16.7 µM] | C[C@@H]1CN([C@@H](C)CO)C(=O)c2cc(NC(=O)CCCN(C)C)ccc2O[C@@H]1CN(C)S(=O)(=O)c1ccccc1 |
| -9.3 | -5.1[16.7 µM] | C[C@H]1CN([C@@H](C)CO)S(=O)(=O)c2ccc(-c3cncnc3)cc2O[C@H]1CN(C)Cc1cccnc1 |
| -10.6 | 2.7[16.7 µM] | C[C@@H]1CN([C@@H](C)CO)C(=O)Cc2cc(NC(=O)C3CC3)ccc2O[C@H]1CN(C)CC1CCCCC1 |
| -2.0 | 24.0[16.7 µM] | COc1ccccc1-c1ccc2c(c1)O[C@H](CN(C)C(=O)c1ccncc1)[C@@H](C)CN([C@H](C)CO)S2(=O)=O |
| -15.7 | -42.0[16.7 µM] | C[C@@H]1CCCCO[C@@H](CN(C)C(=O)Nc2ccc(C(F)(F)F)cc2)[C@H](C)CN([C@@H](C)CO)C(=O)c2cc(NC(=O)Nc3cccc4ccccc34)ccc2O1 |
| -9.6 | 8.4[16.7 µM] | COc1cccc(S(=O)(=O)N[C@@H]2CC[C@H](CC(=O)NC3CCC3)O[C@@H]2CO)c1 |
| 16.1 | -0.3[16.7 µM] | C[C@@H]1CN([C@H](C)CO)S(=O)(=O)c2ccc(C#CCN(C)C)cc2O[C@H]1CN(C)C(=O)CN(C)C |

Rewritten as labelled records: part of the list above.
C[C@@H]1CN([C@@H](C)CO)S(=O)(=O)c2ccc(C3=CCCCC3)cc2O[C@@H]1CN(C)C(=O)Cc1cccnc1
  UUG fidelity: 5.3	HIV Env fusion: -21.8[16.7 µM]

CCNC(=O)C[C@H]1CC[C@H]2[C@H](COc3ccc(NC(=O)Nc4c(C)noc4C)cc3C(=O)N2C)O1
  UUG fidelity: -23.3	HIV Env fusion: 0.3[16.7 µM]

CN(C)CC(=O)N1[C@H](C#N)[C@@H](c2ccc(-c3ccccc3F)cc2)[C@H]1CO
  UUG fidelity: -1.9	HIV Env fusion: 0.9[16.7 µM]

O=C(CCN1CCCCC1)N[C@@H]1CC[C@@H](CCn2cc(-c3cccc(F)c3)nn2)O[C@H]1CO
  UUG fidelity: -3.7	HIV Env fusion: 0.7[16.7 µM]

Continued.
| UUG fidelity | HIV Env fusion | Structure |
| --- | --- | --- |
| -9.9 | -4.0[16.7 µM] | CN(C)C(=O)C[C@@H]1CC[C@H](NC(=O)c2ccc(F)cc2)[C@@H](CO)O1 |
| -5.8 | 0.8[16.7 µM] | O=C(C[C@@H]1CC[C@H](NS(=O)(=O)c2ccccc2F)[C@H](CO)O1)NCCCN1CCOCC1 |
| -7.6 | -13.8[16.7 µM] | C[C@@H]1CN([C@H](C)CO)C(=O)c2cc(NC(=O)C3CC3)ccc2O[C@H]1CN(C)C(=O)Nc1ccccc1 |
| -4.8&-15.4 | 7.9&-7.5[16.7 µM] | C[C@H](CO)N1C[C@H](C)[C@H](CN(C)Cc2ccccc2)Oc2ncc(C#CCN(C)C)cc2C1=O |
| 5.3 | 10.6[16.7 µM] | CCCN(C)C[C@H]1Oc2ncc(C#CC3CC3)cc2C(=O)N([C@@H](C)CO)C[C@@H]1C |
| -6.7 | -7.0[16.7 µM] | Cc1noc(C)c1NC(=O)Nc1cccc2c1O[C@@H](CN(C)C(=O)NC(C)C)[C@@H](C)CN([C@@H](C)CO)C2=O |
| 13.5 | 13.3[16.7 µM] | C[C@H](CO)N1C[C@H](C)[C@H](CN(C)C(=O)Nc2ccc3c(c2)OCO3)Oc2ncc(-c3cc4ccccc4o3)cc2C1=O |
| 21.4 | 25.9[16.7 µM] | C[C@H]1CN([C@@H](C)CO)C(=O)c2cc(C#CCC3CCCC3)cnc2O[C@@H]1CN(C)CC1CCOCC1 |
| -6.6 | 19.7[16.7 µM] | C[C@H](CO)N1C[C@H](C)[C@@H](CN(C)C(=O)CC2CC2)Oc2ncc(-c3ccc(C#N)cc3)cc2C1=O |
| 3.0 | 3.3[16.7 µM] | O=C(N[C@H]1CC[C@H](CCNS(=O)(=O)c2ccc(F)cc2)O[C@@H]1CO)C1CCOCC1 |
| 3.2 | -5.7[16.7 µM] | C[C@@H]1CN([C@H](C)CO)C(=O)c2cc(-c3cccc(F)c3)cnc2O[C@@H]1CN(C)C(=O)c1ccccn1 |
| -17.7 | -17.8[16.7 µM] | C[C@H](O)C#Cc1ccc2c(c1)O[C@H](CN(C)C)[C@H](C)CN([C@H](C)CO)S2(=O)=O |
| -1.0 | 7.3[16.7 µM] | C[C@@H]1CN([C@@H](C)CO)C(=O)c2cccc(NC(=O)Nc3cccc4ccccc34)c2O[C@@H]1CN(C)CC1CC1 |
| -9.9 | 5.6[16.7 µM] | C[C@@H]1CN([C@H](C)CO)C(=O)c2cccc(NC(=O)C3CC3)c2O[C@H]1CN(C)Cc1ccc(C(F)(F)F)cc1 |
| 19.2 | 20.2[16.7 µM] | C[C@@H]1CCCCO[C@H](CN(C)S(=O)(=O)c2ccc(F)cc2)[C@@H](C)CN([C@@H](C)CO)C(=O)c2cc(NC(=O)CCC(F)(F)F)ccc2O1 |
| 7.1 | -2.3[16.7 µM] | C[C@@H]1CN([C@@H](C)CO)C(=O)c2cc(-c3cccc(C#N)c3)cnc2O[C@@H]1CN(C)C(=O)C1CCCCC1 |
| -14.5 | -3.3[16.7 µM] | O=C(C[C@@H]1C[C@@H]2c3cc(NC(=O)CC4CC4)ccc3O[C@@H]2[C@H](CO)O1)NCC(F)(F)F |
| -2.0 | 30.0[16.7 µM] | C[C@H]1CN([C@@H](C)CO)C(=O)Cc2cc(NS(=O)(=O)c3ccccc3)ccc2O[C@H]1CN(C)S(=O)(=O)c1ccc(F)cc1 |
| -6.0 | -9.8[16.7 µM] | Cc1ccc(S(=O)(=O)N(C)C[C@@H]2Oc3ccc(NS(=O)(=O)c4ccccc4)cc3CC(=O)N([C@@H](C)CO)C[C@@H]2C)cc1 |
| 6.0 | 16.4[16.7 µM] | C[C@@H]1CN([C@@H](C)CO)C(=O)Cc2cc(NC(=O)Cc3ccccc3)ccc2O[C@H]1CN(C)Cc1ccc(Oc2ccccc2)cc1 |
| -6.1 | -27.4[16.7 µM] | Cc1ccc(S(=O)(=O)Nc2ccc3c(c2)C(=O)N([C@@H](C)CO)C[C@@H](C)[C@@H](CN(C)S(=O)(=O)c2ccc(C)cc2)OCCCC[C@H](C)O3)cc1 |
| 11.7 | 1.8[16.7 µM] | COCC#Cc1ccc2c(c1)O[C@@H](CN(C)C(C)=O)[C@H](C)CN([C@@H](C)CO)S2(=O)=O |
| -11.4 | 14.6[16.7 µM] | C/C=C/c1ccc([C@@H]2[C@H](C#N)N(C(=O)Cc3ccccn3)[C@H]2CO)cc1 |
| 5.0 | -11.1[16.7 µM] | Cc1noc(C)c1S(=O)(=O)N(C)C[C@H]1Oc2ccc(N(C)C)cc2CC(=O)N([C@H](C)CO)C[C@@H]1C |
| -6.4 | 59.9*[16.7 µM] | COc1ccc(NC(=O)Nc2ccc3c(c2)C(=O)N([C@@H](C)CO)C[C@@H](C)[C@H](CN(C)Cc2ccc(Cl)c(Cl)c2)OCCCC[C@H](C)O3)cc1 |
| 0.0 | -8.2[16.7 µM] | CC(C)CC#Cc1cnc2c(c1)C(=O)N([C@H](C)CO)C[C@H](C)[C@@H](CN(C)S(=O)(=O)c1cn(C)cn1)O2 |
| -3.4 | -5.0[16.7 µM] | C[C@@H]1CN([C@H](C)CO)C(=O)c2cc(NC(=O)Nc3ccccc3)ccc2O[C@@H]1CN(C)C(=O)Nc1cccc2ccccc12 |
| 8.7 | -10.3[16.7 µM] | N#C[C@H]1[C@@H](c2ccc(C3=CCCC3)cc2)[C@@H](CO)N1C(=O)c1cccc(F)c1 |
| -0.1 | 20.0[16.7 µM] | C[C@@H]1CCCCO[C@@H](CN(C)Cc2ccc(Cl)c(Cl)c2)[C@H](C)CN([C@@H](C)CO)C(=O)c2cc(NC(=O)Nc3ccccc3)ccc2O1 |
| -0.3 | -1.5[16.7 µM] | O=C(C[C@H]1CC[C@H]2[C@@H](COC[C@@H](O)CN2C(=O)c2ccccc2)O1)NCc1ccc(-c2ccccc2)cc1 |
| 7.3 | 10.4[16.7 µM] | Cc1ccc(S(=O)(=O)Nc2cccc3c2O[C@H](CN(C)S(=O)(=O)c2cn(C)cn2)[C@@H](C)CN([C@@H](C)CO)C3=O)cc1 |
| 19.7 | -3.2[16.7 µM] | CNC[C@@H]1Oc2ccc(NC(=O)Nc3ccc4c(c3)OCO4)cc2C(=O)N([C@@H](C)CO)C[C@@H]1C |
